StopGo reporter: FMDV 2A StopGo reporter, luciferase signal | human cells with a luciferase reporter of 2A StopGo recoding; control for the full effect not named in the record | 410,000 tested, 1.2% active | Potency, µM (top dose mostly 57.9 µM), for inactives: top-dose signal change, negative = less light | AID 1159524; active = well fitted falling curve with a large enough effect; inconclusive = small, poorly fitted or top-dose-only effect; inactive = no such curve, though single readings can be large or run the other way; tested in HEK293T cells; also: % is scaled to controls: 0 for no effect and ±100 for the full control effect; nearly all actives have a fitted effect of over 45% in size; luciferase light after 4 h
Cruzain inh Det: cruzain (T. cruzi) inhibition with detergent; P25779; purified cruzain, Z-FR-AMC fluorescence, 0.01% Triton; Potency, µM, for the others: max response, negative = inhibition, hits mostly inhibitors; 200,000 tested, 0.43% active; AID 1478;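 also: plate controls were neutral wells for no effect and buffer without enzyme for full effect; nearly all actives have a fitted effect of over 40% in size; top concentration of the series not given in the record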
Target sequence (P25779 123-467 limits assumed): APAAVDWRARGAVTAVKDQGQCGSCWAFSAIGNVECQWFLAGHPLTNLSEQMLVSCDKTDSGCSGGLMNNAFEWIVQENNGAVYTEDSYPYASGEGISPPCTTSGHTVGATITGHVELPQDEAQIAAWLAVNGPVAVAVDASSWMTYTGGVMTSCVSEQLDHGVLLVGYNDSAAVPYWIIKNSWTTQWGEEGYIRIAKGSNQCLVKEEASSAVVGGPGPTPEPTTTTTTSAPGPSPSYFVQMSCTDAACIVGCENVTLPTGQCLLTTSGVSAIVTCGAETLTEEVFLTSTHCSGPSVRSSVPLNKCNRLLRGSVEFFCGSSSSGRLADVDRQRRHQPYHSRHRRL
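In this qHTS format, compounds are incubated with 1.5 nM cruzain for 15 min at room temperature before 2 uM Z-FR-AMC is added. Release of AMC is followed at 360/450 nm, and progress is taken as the 60 s fluorescence difference.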
SARS PLpro yeast: inhibitors of SARS-CoV papain-like protease in yeast; 330,000 tested, 0.19% active; AID 485353; Potency, µM (doses to about 32.9 µM), for inactives: at the top dose activity, positive = growth rescue; S. cerevisiae expressing SARS-CoV PLpro, growth rescue; control for the full effect not named in the record; active means well fitted rising curve with a large enough effect; inconclusive means small, poorly fitted or top-dose-only effect; inactive means no such curve, though single readings can be large or run the other way; also: 0% is about no effect; nearly all actives have a fitted effect of over 55% in size; growth read by luminescence after 48 h
RE007 growth inh: less growth of the S. pombe RE007 Vpr strain; S. pombe RE007 Vpr strain, BacTiter-Glo ATP luminescence, 24 h; control for the full effect not named in the record; 360,000 tested, 0.21% active; AID 651644; Potency, µM (highest dose often 92.2 µM), inactives show top-dose activity change, negative = less growth; active = well fitted falling curve with a large enough effect; inconclusive = small, poorly fitted or top-dose-only effect; inactive = no such curve, though single readings can be large or run the other way;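 also: % is scaled to controls: 0 for no effect and ±100 for the full control effect; nearly all actives have a fitted effect of over 50% in size; the assay follows cell death caused by Vpr and the record does not say whether a fall means rescue or toxicity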
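Fission yeast strain RE007, carrying one chromosomally integrated HIV-1 vpr copy, was seeded at OD 0.01 in PMG+AL medium with 23 nL pinned compound. After 24 h at 30 °C and 99% humidity, viability was read by BacTiter-Glo luminescence.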
Cruzain inh noDet: blocks cruzain activity in detergent-free assay. P25779. purified cruzain, Z-FR-AMC fluorescence, no detergent. Potency, µM, inactives show max response, negative = inhibition, most hits filed as inhibitors. 200,000 tested, 2.3% active;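 also: plate controls were enzyme without inhibitor for no effect and buffer without enzyme for full effect; nearly all actives have a fitted effect of over 40% in size; top concentration of the series not given in the record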
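Detergent-free condition (0.00005% Triton X-100) in acetate buffer pH 5.5 with DTT. 1.5 nM enzyme and compound were pre-mixed 15 min, then 2 uM Z-FR-AMC substrate added; reaction progress from fluorescence change between first and third reads (60 s).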
LASV entry inh: Lassa virus entry inhibition; Lassa virus pseudotype entry inhibition, cell reporter; control for the full effect not named in the record; Potency, µM (top dose mostly 37.9 µM), for inactives: top-dose activity change, negative = inhibition, actives largely listed as inhibitors; 300,000 tested, 1.2% active; active means well fitted inhibition curve with a large enough effect; inconclusive means small, poorly fitted or top-dose-only effect, or effect the other way; inactive means flat fitted curve, though single readings scatter; tested in HEK293 cells; also: % is scaled to controls: 0 for no effect and ±100 for the full control effect; nearly all actives have a fitted effect of over 50% in size; luciferase read-out
NS1 function inh: inhibitors of influenza NS1 protein function. S. cerevisiae slowed by influenza A NS1, growth recovery by OD600. Potency, µM (titrated, usually from 46.1 µM), for the others: top-dose activity, positive = more growth. 270,000 tested, 0.4% active. AID 2326; active means well fitted rising curve with a large enough effect; inconclusive means small, poorly fitted or top-dose-only effect; inactive means no such curve, though single readings can be large or run the other way; also: nearly all actives have a fitted effect of over 50% in size
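OD600 was taken as the measure of yeast growth restored by compound in an NS1-expressing S. cerevisiae strain. Cells had been washed out of glucose medium and diluted 1:100 into galactose -URA medium, pH 6.0.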
MARV entry inh: inhibitors of Marburg virus binding or cell entry. Marburg virus pseudotyped entry inhibition, cell reporter; control for the full effect not named in the record; about a third of the inactives were read at about 46 µM. Potency, µM (series often up to 37.8 µM), for the others: top-dose activity change, negative = inhibition, actives largely listed as inhibitors. 300,000 tested, 1.8% active. AID 540276; active = well fitted inhibition curve with a large enough effect; inconclusive = small, poorly fitted or top-dose-only effect, or effect the other way; inactive = flat fitted curve, though single readings scatter; tested in HEK293 cells; about a fifth of its hits are not listed in these tables; also: % is scaled to controls: 0 for no effect and ±100 for the full control effect; luciferase read-out
* = called active by the depositor; ? = inconclusive; . = not tested or not shown; & = joins results of further samples; [ ] = remark or other dose. Unless noted, calls follow the shape of the dose curve; as a rule, active = well fitted curve in the direction sought with a large enough effect; inconclusive = small, poorly fitted or top-dose-only effect, or another doubt; inactive = no such curve, though single readings can be large; an effect the other way counts as inactive or inconclusive. Potency is read from the fitted curve at half-maximal effect.

SMILES	StopGo reporter	Cruzain inh Det	SARS PLpro yeast	RE007 growth inh	Cruzain inh noDet	LASV entry inh	NS1 function inh	MARV entry inh
CCCn1c(N)c(C(=O)CSc2nc3ccccc3n2CCC#N)c(=O)n(C)c1=O	-11%	-0.5%	3%	23%	-3%	9%	-4%	19%[46.1 µM]
COc1ccc2[nH]c3c(c2c1)CCN1C(=O)C(CC(=O)NCc2cccc(C(F)(F)F)c2)C[C@H](C(=O)N2CCCCC2)[C@@]31CCc1ccccc1 (stereo partly specified)	-14%	.	27%	13%	.	.	.	-4%
O=C(N/N=C/c1ccco1)c1ccccc1OCc1ccc(Br)cc1	-23%	-3.6%	-16%	11%	3%	8%	-3%	?
COc1ccccc1CN(C(=O)CNC(=O)c1ccco1)C(C(=O)NCC1CCCO1)c1ccccc1 (stereo unspecified)	-3%	.	-1%	2%	.	.	4%	-26%[46.1 µM]
COc1ccc(-c2nn(-c3ccccc3)cc2/C=C\C(=O)N2CCOCC2)cc1[N+](=O)[O-]	-12%	.	-1%	-3%	.	-23%[46.1 µM]	7%	15%[46.1 µM]
CN1CCN(C(=O)c2ccc(N(Cc3ccc(Cl)cc3)S(C)(=O)=O)cc2)CC1	.	-1.6%	3%	12%	4%	2%	-6%	1%
CC(C)NS(=O)(=O)c1ccc(CCC(=O)O)cc1	-24%	0.7%	4%	1%	9%	-2%	10%	2%
COc1ccc(CNc2ccc(S(N)(=O)=O)cc2)c(OC)c1OC	-17%	2.4%	6%	-7%	-4%	2%	8%	6%
CCOCCc1nn2c(=O)cc(COC(=O)c3cccc(C)c3)nc2s1	6%	-2.3%	.	.	5%	-23%[46.1 µM]	.	.
COc1ccc(C)cc1Nc1n[n+](-c2ccccc2)c(-c2ccc(N(C)C)cc2)s1	?	.	-7%	-7%	.	.	-11%	.
Cc1csc(N(C(=O)c2ccccc2F)c2ccccc2)n1	-10%	.	0%	-9%	.	27%[46.1 µM]	.	-21%[46.1 µM]
O=C(COC(=O)CSc1ccc2ccccc2c1)NCc1ccc2c(c1)OCO2	0%	-6.8%	-10%	-7%	7%	0%	-37%	1%
CN(C)c1nc(N/N=C/c2ccccc2O)nc(Nc2ccc(F)cc2)n1	?	.	-22%	?	.	?	.	?
CCOC(=O)N1CCN(Cc2nc3cc(NC(=O)CC)ccc3n2CC)CC1	4%	.	-2%	5%	.	.	-3%	.
CC(=O)OCCc1c2ccccc2c(CCCN(C)C)c2ccccc12	2%	.	.	-12%	.	-24%[46.1 µM]	.	?
COc1cc2c3c(c1)/C(=C1/SC(=S)NC1=O)C(=O)N3C(C)(C)C=C2C	-16%	-3.2%	-2%	-11%	-4%	-2%	6%	?
CC(C)n1c(=O)c(C=Nc2ccc(Cl)cc2)c(O)n(Cc2ccco2)c1=O	.	-19%	9%	.	11%	7%	24%	4%
COc1ccc(CNC(=O)CN2CCN(c3ccccc3O)CC2)cc1OC	?	.	-2%	-18%	.	.	5%	.
Cc1ccccc1C(=O)O/N=C(\N)c1ccc([N+](=O)[O-])cc1	8%	.	-5%	-7%	.	0%[46.1 µM]	-8%	?
CCOC(=O)C1CCN(c2c(NCCN3CCCCC3C)c(=O)c2=O)CC1 (stereo unspecified)	-10%	-2.5%	-1%	10%	-8%	7%	-8%	-19%
O=C(O)CCCNS(=O)(=O)c1ccccc1	9%	0.8%	25%	8%	-11%	0%	6%	-3%[46.1 µM]
COC(=O)c1cc2oc3ccccc3c2n1CC(=O)Nc1ccc(OC)c(OC)c1	-26%	-2.9%	.	.	22%	.	.	-2%[46.1 µM]
O=c1c2c3c(sc2nc2n1CCC2)CCC3	0%	4.8%	4%	-11%	1%	26%	?	0%
O=S(=O)(Nc1ccccn1)c1ccc(Cl)c2ccccc12	31%[activator]	.	1%	0%	.	4%	.	8%[46.1 µM]
CCOC(=O)N1CCN(C(=O)C2CCCN(S(=O)(=O)c3ccccc3)C2)CC1 (stereo unspecified)	19%	-1.7%	-1%	12%	-6%	0%	-7%	13%

Remaining list, next part
SMILES	StopGo reporter	Cruzain inh Det	SARS PLpro yeast	RE007 growth inh	Cruzain inh noDet	LASV entry inh	NS1 function inh	MARV entry inh
CC(C)Cc1cc(C(=O)Nc2ccccc2)c2ccccc2n1	-13%	.	0%	13%	.	0%	-62%	?
CC(=O)Nc1ccc(S(=O)(=O)n2nc(-c3ccc(C)cc3)nc2N)cc1	-16%	4.7%	5%	4%	-16%	-22%	-1%	-22%[46.1 µM]
N#CCNC(=O)C1c2ccccc2Oc2ccccc21	-7%	.	1%	0%	.	13%	28%	26%
Cc1c(NC(=O)c2nn3c(C(F)(F)F)cc(-c4ccccc4)nc3c2Cl)c(=O)n(-c2ccccc2)n1C	-25%	-1.7%	4%	0%	?	?	10%	?
Cc1ccccc1CS(=O)(=O)c1snnc1C	3%	1.0%	4%	-11%	8%	-19%	1%	17%
CSc1nnc(C)c(=O)n1COC(=O)c1ccc(S(=O)(=O)N2CCOCC2)cc1	-19%	-1.1%	15%	-3%	0%	-7%	5%	-3%
Cc1ccccc1CN1CCCN(CC(=O)Nc2ccc(F)cc2)S1(=O)=O	-26%	-6.3%	.	.	1%	-25%[46.1 µM]	.	.
CC(C)C[C@H](N)c1cn([C@@H](Cc2ccc(O)cc2)C(=O)N2CCNCC2)nn1	-14%	.	0%	1%	.	.	2%	.
CCCn1c(N)c(C(=O)CSc2nc3ccccc3s2)c(=O)[nH]c1=O	?	.	-3%	0%	.	?	.	?
O=C(Nc1ccc(Br)cc1F)C1CC(=O)N(C2CCCCC2)C1 (stereo unspecified)	-16%	.	-1%	8%	.	-14%	-26%	21%
C/C(=C1/C(=O)N(c2ccc([N+](=O)[O-])cc2)N=C1c1ccccc1)N(C)C	.	-8.9%	-2%	.	-10%	.	13%	.
O=C(COc1ccccc1F)OCc1cc(=O)n2nc(C3CCCCC3)sc2n1	4%	-6.4%	.	.	-11%	9%[46.1 µM]	.	.
COc1ccc(NC(=O)C(CCSC)NC(N)=O)cc1NS(=O)(=O)c1ccc(F)cc1 (stereo unspecified)	8%	.	0%	18%	.	.	-4%	.
COc1ccc(N=C(c2ccccc2)c2c(C)[nH]n(-c3ccccc3)c2=O)c(OC)c1	-18%	.	0%	1%	.	?	-1%	?
Cc1cc(=O)[nH]c(SCCOc2ccc(OC(C)C)cc2)n1	-9%	0.7%	-19%	-12%	-23%	?	-42%	-18%
O=C(CN1C(=O)c2cccnc2Oc2ccc(Cl)cc21)Nc1ccccc1F	2%	.	2%	7%	.	.	17%	.
Nc1ncnc(Sc2ncccn2)c1[N+](=O)[O-]	32µM*	.	-3%	-19%	.	.	-3%	.
CC(C)OC(=O)c1ccc(COC(=O)c2cnccn2)cc1	7%	.	0%	6%	.	0%	-4%	10%[46.1 µM]
O=C(Nc1nnc(COc2ccc(Cl)cc2)s1)c1cccs1	-4%	2.6%	-1%	0%	25µM*	23%	-55%	14%&14%
CC12CNCC(C)(CNC1)C2O (stereo unspecified)	.	1.3%	-6%	-1%	-4%	5%	7%	21%
Cc1cccc(Cn2c(=O)n(CCCCC(=O)NCc3ccc4c(c3)OCO4)c(=O)c3ccccc32)c1	2%	-1.7%	.	.	-6%	8%[46.1 µM]	.	?
CCOc1ccccc1CN1C(=O)NC2(CCCCCC2)C1=O	-2%	.	0%	-6%	.	?	-1%	-10%[46.1 µM]
CC(C)(C)C(=O)O/N=C(\N)c1ccc([N+](=O)[O-])s1	16%	.	-1%	-19%	.	.	-5%	.
COc1ccc(-n2nc(C(=O)N3CCCC(C)C3)c3c4ccccc4n(C)c3c2=O)cc1 (stereo unspecified)	0%	-6.1%	.	.	-3%	-6%[46.1 µM]	.	14%[46.1 µM]
COc1ccc(Cl)cc1N(C)C(=O)c1cc2c(=O)oc3ccc(C)cc3c2s1	-24%	1.3%	.	.	-6%	?	.	?

The list continues:
SMILES	StopGo reporter	Cruzain inh Det	SARS PLpro yeast	RE007 growth inh	Cruzain inh noDet	LASV entry inh	NS1 function inh	MARV entry inh
CC(=O)Nc1ccc(S(=O)(=O)NC(C)c2nc(-c3ccccc3)no2)cc1 (stereo unspecified)	-3%	.	11%	1%	.	16%	9%	-17%[46.1 µM]
CCOc1ccc(OCCC(=O)OC(C)C(=O)Nc2ccc(C(C)=O)cc2)cc1 (stereo unspecified)	13%	.	0%	-7%	.	-1%	-6%	12%
COc1ccc(CNC(=O)c2oc3c(c2C)-c2nn(Cc4ccccc4Cl)cc2CC3)cc1	-29%	-1.7%	.	.	5%	-13%[46.1 µM]	.	.
CCCOc1ccc(-c2nc3ccc(Br)cc3c(=O)o2)cc1	-8%	-2.0%	.	.	-4%	-3%[46.1 µM]	.	.
CC(Oc1cc2oc(=O)c3c(c2cc1Cl)CCC3)C(=O)N1C[C@H]2C[C@@H](C1)c1cccc(=O)n1C2 (stereo partly specified)	-9%	.	-3%	-20%	.	.	-3%	.
CC(C)c1ccc(Nc2nnc(SCC(=O)NCC3CCCO3)s2)cc1 (stereo unspecified)	-16%	.	-3%	-11%	.	?	.	-33%
O=c1c2ccccc2nc(-c2ccco2)n1-c1ccc(Br)cn1	-3%	-4.0%	-5%	3%	-14%	-14%	-10%	-4%
CCc1ccc(Nc2n[n+](C)c(-c3ccncc3)s2)cc1	-8%	.	-10%	-17%	.	.	-66%	.
CCn1c(SCC(=O)Nc2ccc3c(c2)OCO3)nnc1-c1ccccc1O	.	-3.8%	-11%	-1%	-13%	-11%	-19%	?
O=C(Nc1ccon1)c1sc2cc(Cl)ccc2c1Cl	27%	.	2%	-9%	.	.	11%	.
FC(F)(F)c1nc(Oc2ccccc2)c2ccccc2n1	-2%	-2.8%	-6%	2%	-7%	1%	12%	14%
COc1ccc(C(C(=O)Nc2ccc(C(C)C)cc2)N(C)C(=O)c2ccc(=O)[nH]c2)cc1 (stereo unspecified)	0%	.	0%	-17%	.	6%	.	?
CN(C)C/C(Cl)=C(\Cl)c1ccccc1	-22%	2.2%	0%	-20%	4%	-8%	-22%	4%&4%
CCC(=O)N1CCc2cc(S(=O)(=O)NC(Cc3ccccc3)C(=O)Nc3ccccc3C)ccc21 (stereo unspecified)	16%	-1.5%	.	.	8%	-1%[46.1 µM]	.	-21%[46.1 µM]
